Screening data: PubChem BioAssay, several laboratories
ALR H2O2 inh – inhibitors of human ALR sulfhydryl oxidase, primary screen, biochemical, H2O2 detection, HRP-luminol luminescence, single point; FAD-linked sulfhydryl oxidase ALR (Homo sapiens), P55789; purified ALR, DTT oxidation; inhibition, % (no concentration beside the values); 3.8% of 290,000 active; AID 485317, 2010;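 active = mean and each replicate at 75% or more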;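 also: stock transfer was 7.5 nL into about 7.5 µL; 0% = neutral wells and 100% = wells with inactivated enzyme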
AF4-AF9 inh – inhibitors of AF4 peptide binding to AF9, primary screen, biochemical, AlphaScreen, biotin-AF4 peptide, FLAG-AF9, single point. inhibition, % at 10 µM. 0.47% of 350,000 active;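 active = every replicate reaching a set inhibition limit, whatever the replicate mean, cut at about 25% in these data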;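 also: 0% = plate neutral control median and 100% = total signal loss; the record names both 10 and 1 µM as test concentration; the first replicate is given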
Target sequence (P42568 whole entry, looked up): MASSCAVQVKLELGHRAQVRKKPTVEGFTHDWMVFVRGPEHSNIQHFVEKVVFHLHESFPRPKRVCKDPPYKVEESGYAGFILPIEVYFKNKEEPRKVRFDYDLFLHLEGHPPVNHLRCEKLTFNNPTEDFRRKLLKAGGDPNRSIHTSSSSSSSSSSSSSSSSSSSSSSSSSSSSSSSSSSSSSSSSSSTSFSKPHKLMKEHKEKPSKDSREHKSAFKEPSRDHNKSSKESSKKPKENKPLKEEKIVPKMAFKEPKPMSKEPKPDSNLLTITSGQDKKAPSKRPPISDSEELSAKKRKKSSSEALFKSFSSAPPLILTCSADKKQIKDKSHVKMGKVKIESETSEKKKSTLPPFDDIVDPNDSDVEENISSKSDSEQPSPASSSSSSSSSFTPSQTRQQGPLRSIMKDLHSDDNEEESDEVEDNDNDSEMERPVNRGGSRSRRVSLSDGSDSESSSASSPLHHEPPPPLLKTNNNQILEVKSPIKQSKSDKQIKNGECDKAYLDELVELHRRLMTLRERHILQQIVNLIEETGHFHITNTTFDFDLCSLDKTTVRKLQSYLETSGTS
E coli growth – E. coli growth inhibition, primary screen, OD600; 0.21% of 330,000 active; Escherichia coli growth, 23 h; hits give low values; OD600 absorbance (concentration not given with the values);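 active = OD600 absorbance below the run mean of sample wells minus 3.6 SD, in any replicate, cut at about 0.56 in these data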;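 also: stock transfer was 300 nL into about 60 µL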
Vif A3G – inhibitors of Vif binding to APOBEC3G peptide, primary screen, biochemical, TR-FRET, GST-Vif 1-94, biotin-A3G peptide, dose response retest (AID 1117319) | Virion infectivity factor (Human immunodeficiency virus type 1 group M subtype B (isolate … | TR-FRET GST-Vif / biotin-A3G peptide binding; higher % means a stronger effect; test concentration not given here; strong numbers were not always called active | inhibition, %, or IC50 in µM where a hit was titrated | 0.57% of 260,000 active;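 active = above the screen mean plus three standard deviations and confirmed in dose response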;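 also: Vif residues 1-94 fused to GST binding biotinylated APOBEC3G peptide 110-148; 0% = full assay without inhibitor and 100% = GST in place of GST-Vif; retest series ran down from 100 µM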
FGF22 binding – binders of human FGF22 protein, primary screen, FGF22 synaptogenesis inhibitor project, biophysical, thermal shift, single point; 1.5% of 340,000 active; calls only at 9.99 µM; recombinant FGF22 thermal shift, SYPRO orange fluorescence; percent of sucrose octasulfate shift, DMSO zero; Fibroblast growth factor 22 (Homo sapiens), Q9HCT0;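 active = melting point raised past a set limit in the mean and every replicate; three in four hits are not shown here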
HNF4A DNA FP – change in binding of human HNF4A to DNA, primary screen, biochemical, fluorescence polarization, FITC-DNA. 0.3% of 360,000 active. activity change, % at 10 µM. 1 h; in the data active = activity change above about 30%, passing the limit was not always enough;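 also: controls were the assay level and a saturating level of protein; the project sought stronger binding though the title names inhibitors; some compounds called inactive have numbers as strong as hits; positive values seem to mean higher polarization but the record does not say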
Target sequence (P41235 whole entry, looked up): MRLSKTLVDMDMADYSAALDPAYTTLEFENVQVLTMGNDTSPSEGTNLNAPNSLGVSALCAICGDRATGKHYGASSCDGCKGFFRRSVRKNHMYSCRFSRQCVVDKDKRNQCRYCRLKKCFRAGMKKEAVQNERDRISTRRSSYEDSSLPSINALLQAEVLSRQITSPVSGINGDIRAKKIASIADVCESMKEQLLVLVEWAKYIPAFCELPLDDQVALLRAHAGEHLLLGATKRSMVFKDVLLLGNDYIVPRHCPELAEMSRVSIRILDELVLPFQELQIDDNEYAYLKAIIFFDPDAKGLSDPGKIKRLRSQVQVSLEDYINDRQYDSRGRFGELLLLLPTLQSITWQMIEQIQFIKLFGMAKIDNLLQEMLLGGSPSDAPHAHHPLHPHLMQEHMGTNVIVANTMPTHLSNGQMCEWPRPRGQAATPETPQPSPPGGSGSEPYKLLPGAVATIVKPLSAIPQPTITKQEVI
rRNA inh HTS – reduced GFP signal of wild-type E. coli, primary screen, bacterial rRNA inhibitor project, GFP/RFP fluorescence, OD600, single point. AID 720706, 2013. 1.6% of 350,000 active. E. coli WT GFP vs humanized-ribosome RFP mutants, 24 h; hits give low values; DMSO median 0, no signal -100. GFP signal change (wild-type ribosome), % (test concentration not listed);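 active = significant combined selectivity score with lowered wild-type GFP, culture density cut under 30%, mutant RFP and density less affected; inactive = any of these conditions unmet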; also: one replicate is shown; some compounds called inactive have numbers as strong as hits
rRNA inh HTS OD600 – also measured in rRNA inh HTS; calls as there; OD600 change, %; measured here: OD600 growth;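 optical density of the mix in the first replicate; 0 = DMSO median and -100 = no signal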
rRNA inh HTS RFP – recorded beside rRNA inh HTS, whose call it bears; RFP signal change, %; measured here: RFP humanized mutant strains;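 first replicate; 0 = DMSO median and -100 = no signal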
An asterisk follows results filed as active; i = inactive; nt = no result given. An excerpt; rates above refer to the full screens.

compound	ALR H2O2 inh	AF4-AF9 inh	E coli growth	Vif A3G	FGF22 binding	HNF4A DNA FP	rRNA inh HTS	rRNA inh HTS OD600	rRNA inh HTS RFP
O=C(CSc1cn(Cc2cccc(F)c2)c2ccccc12)NCc1ccc(F)cc1	-7.0	-2.5	0.795	-5.9%	i	-0.5	1.5	3.1	-1.8
Cc1[nH]c2ccc(F)cc2c(=O)c1SC(F)(F)C(F)C(F)(F)F (configuration not stated)	-5.0	nt	0.68	1.7%	nt	2.5	nt	nt	nt
Cc1ccc(S(=O)(=O)N(Cc2ccccc2)c2ccccc2C(=O)NCc2ccco2)cc1	4.1	5.3	0.696	4.5%	i	-3.1	-36.9	-9.4	33.2
Cc1cc(C(=O)CSc2nnc(N)s2)c(C)n1C1CC1	97.8*	2.5	0.626	0.5%	i	1.6	-1.1	-1.3	1.0
CC(C(=O)OCC(=O)c1c(N)n(C)c(=O)n(C)c1=O)N1C(=O)c2ccccc2C1=O (configuration not stated)	-0.3	0.3	0.67	nt	i	3.4	6.4	5.7	5.7
Cc1ccc(-n2c3c(cc(C(=O)N4CCN(C)CC4)c2=O)C(=O)CC(C)(C)C3)cc1	-2.7	nt	0.712	10.7%	nt	-4.6	nt	nt	nt
C#CCOCCOCCOCCNc1nc(N2CCOCC2)nc(N2CCN(C(=O)[C@H]([C@@H](C)CC)n3cc([C@@H](N)CC(C)C)nn3)CC2)n1	-6.6	0.5	nt	7.2%	i	-1.9	6.2	9.3	-1.5
CC1(C)CC(=O)c2sc(NC(=O)c3ccccc3)nc2C1	43.7	nt	0.679	9.5%	nt	nt	nt	nt	nt
CCN(CC)CCN1C(=O)C(O)=C(C(=O)c2cc3cccc(OC)c3o2)C1c1cccs1 (configuration not stated)	-15.5	nt	0.652	10.5%	nt	nt	nt	nt	nt
CNC(=S)N(Cc1ccc2c(c1)OCO2)C1CC(=O)N(c2ccccc2)C1=O (configuration not stated)	-4.6	-0.3	0.655	nt	i	1.4	1.1	-1.3	3.0
COCCOC1CCN(C(=O)C2CCC(=O)N(CCc3ccc(OC)cc3)C2)CC1 (configuration not stated)	-7.7	0.4	0.699	nt	i	1.2	6.2	13.1	-0.5
COc1ccc(N(Cc2ccccc2)S(=O)(=O)c2cccc(C(=O)NC3=NCCS3)c2)cc1	-5.4	nt	0.763	-2.6%	nt	-3.1	nt	nt	nt
C[C@@H]1CN([C@@H](C)CO)C(=O)c2cc(-c3cccnc3)cnc2O[C@@H]1CN(C)C(=O)Nc1ccc2c(c1)OCO2	nt	-1.2	nt	nt	i	nt	10.5	10.7	-3.9
COc1ccc(C#Cc2ccc3c(c2)O[C@H](CN(C)C(=O)CN2CCOCC2)[C@@H](C)CN([C@@H](C)CO)S3(=O)=O)cc1	nt	3.7	nt	nt	i	nt	-2.6	-9.1	10.8
COc1ccc(Cl)cc1C(=O)Nc1cccc2ncccc12	-8.0	-5.3	0.65	nt	i	-2.1	-11.4	-11.5	-5.1
Cc1cccc(N2C(=O)Cc3ccccc3C2=O)c1	nt	1.1	0.533*	nt	i	-0.9	4.1	4.2	-1.4
COc1ccc2c3c([nH]c2c1)[C@@H](CO)N(C(=O)c1ccccn1)CC31CN(C(=O)C2CCCC2)C1	nt	-4.4	nt	nt	i	nt	-2.2	-2.8	-4.8
Cc1cc(C)n2c(SCc3cccs3)nnc2n1	-3.7	nt	0.732	-0.9%	nt	-3.2	nt	nt	nt
Cc1ccc(-c2cnc3c(c2)C(=O)N([C@H](C)CO)C[C@H](C)[C@@H](CN(C)C(=O)Cc2cccnc2)O3)cc1	nt	-1.9	nt	nt	i	nt	2.0	2.3	0.4
CCCn1c(CC)nc([N+](=O)[O-])c1Sc1ccc(F)cc1	35.4	nt	0.716	1.7%	nt	-3.5	nt	nt	nt
O=C(C1COc2ccccc2O1)N1CCN(Cc2ccccc2)CC1 (configuration not stated)	-1.8	-0.2	0.691	nt	i	-1.2	2.0	-0.7	0.0
CO[C@H]1CN(C)C(=O)c2cc(NC(=O)NC3CCCCC3)ccc2OC[C@H](C)N(CCc2ccccc2)C[C@H]1C	nt	3.0	nt	nt	i	nt	-2.2	-2.7	11.3
C[C@@H](C(=O)Nc1nc2ccc(F)cc2s1)N1C(=O)C2CC=CCC2C1=O (some centres not stated)	27.8	-16.8	nt	nt	i	-0.3	-12.6	4.1	6.0
NS(=O)(=O)c1cc2c(cc1Cl)NC(CC1CCCC1)NS2(=O)=O (configuration not stated)	3.4	-0.5	0.684	3.6%	i	0.9	-1.1	14.0	-0.6
O=C(COC(=O)c1ccccc1OC(F)F)Nc1ccc2[nH]c(=O)[nH]c2c1	-8.5	-0.8	0.711	38.2%	i	4.4	1.9	6.1	-2.2
CN(C(=O)CN1CCN(c2ccc([N+](=O)[O-])cn2)CC1)c1ccccc1	nt	nt	nt	-4.5%	nt	-0.5	4.1	0.7	5.4
CCN(CC(=O)Nc1ccc(OC)c(OC)c1)CC(=O)Nc1ccccc1C(F)(F)F	-3.0	3.1	0.703	-2.6%	i	-6.5	9.4	13.3	1.6
C[C@@H]1CCCCO[C@@H](CN(C)C(=O)Nc2ccc(F)cc2)[C@H](C)CN([C@@H](C)CO)C(=O)c2cc(NC(=O)CCCN(C)C)ccc2O1	nt	3.9	nt	nt	i	nt	-0.6	-6.1	-0.2
COc1ccc(CN2C(=O)CCC2(C)C(=O)NC2CCCCC2)c(OC)c1 (configuration not stated)	-2.6	nt	nt	-6.9%	nt	-3.2	nt	nt	nt
C[C@@H]1CCCCO[C@H](CN(C)C(=O)Nc2ccc(C(F)(F)F)cc2)[C@@H](C)CN([C@H](C)CO)C(=O)c2cc(NS(=O)(=O)c3ccc(F)cc3)ccc2O1	nt	2.0	nt	nt	i	nt	7.5	9.8	-1.1
O=C(NCCN1CCN(c2ccc([N+](=O)[O-])cc2)CC1)NCc1ccccc1	-14.5	-12.3	0.602	-6.5%	i	-3.4	-0.2	-2.3	-1.9
COc1ccc(Br)cc1CN1CCN(C(=O)c2cccc(F)c2)CC1	1.8	2.8	0.696	7.1%	i	-2.7	-5.5	-7.9	1.9
C[C@@H]1CN([C@H](C)CO)C(=O)Cc2cc(NC(=O)Nc3cccc4ccccc34)ccc2O[C@@H]1CN(C)Cc1ccc(C(F)(F)F)cc1	nt	0.1	nt	nt	i	nt	-1.9	-2.6	-1.4
C[C@H](CO)N1C[C@H](C)[C@H](CN(C)C(=O)C2CCCCC2)OCCCC[C@H](C)Oc2ccc(NS(=O)(=O)c3ccc(Cl)cc3)cc2C1=O	nt	1.9	nt	nt	i	nt	-0.3	-5.0	0.5
S=C(NCc1ccco1)NC1CCCc2ccccc21 (configuration not stated)	-1.1	4.8	0.672	-6.6%	i	15.3	11.8	4.0	9.0
CCCCNC(=O)c1ccc(NC(=O)CC2SC(N3CCCC3)=NC2=O)cc1 (configuration not stated)	-3.6	-5.7	0.615	-6.2%	i	-0.5	nt	nt	nt
COc1ccccc1S(=O)(=O)Cc1ccc(C(=O)NCC2CCCO2)o1 (configuration not stated)	-0.4	-2.0	0.686	-3.3%	i	4.8	5.2	4.6	1.4
C[C@@H]1CN([C@@H](C)CO)C(=O)c2cc(NC(=O)c3ccncc3)ccc2O[C@H]1CN(C)C(=O)NC1CCCCC1	nt	-3.3	nt	nt	i	nt	6.3	6.6	-0.8
COc1cc(NC(=O)c2c(F)c(F)c(OC)c(F)c2F)ccc1NC(=O)c1cccs1	-1.8	1.2	0.652	1.1%	i	-0.6	-1.5	-1.9	0.7
C[C@@H]1COC(=O)[C@H](Cc2ccc(F)cc2)CC/C=C\C[C@@H](CC(=O)NCCO)C(=O)N1	-5.2	-1.0	nt	nt	i	15.1	6.1	-0.3	10.0
CCOc1ccc(/C(O)=C2\C(=O)C(=O)N(CCN(C)C)C2c2cccc(OC)c2OC)cc1Cl (configuration not stated)	-1.2	nt	0.786	19.1%	nt	-1.2	nt	nt	nt
CCOc1ccc(C(=O)NCCC2=CCCCC2)cc1OCC	-2.2	-23.7	0.7	-5.1%	i	1.1	13.3	5.2	-2.4
C=C(C)/C=N/NC(=S)Nc1ccc(S(=O)(=O)N2CCOCC2)cc1	-4.1	9.5	nt	2.1%	i	0.5	6.7	-0.3	-0.3
Cc1cccc(OCC(=O)NCC(c2ccco2)N2CCCC2)c1 (configuration not stated)	nt	-7.5	0.678	8.6%	i	-0.3	0.2	-0.6	-1.2
CCOc1ccccc1OCC(=O)Nc1ccc(N2CCOCC2)cc1N1CCOCC1	nt	5.3	0.669	8.4%	i	1.6	6.9	-0.2	6.7
CCC(C)NC(=S)Nc1ccc(F)cc1 (configuration not stated)	nt	-21.6	0.671	3.8%	i	1.5	8.8	4.2	-1.7
CNCC(O)CN(c1ccccc1)c1ccccc1 (configuration not stated)	98.6*	8.2	0.673	nt	i	0.5	0.5	-8.3	5.7
Cc1ccc(NC(=O)c2ccc(CSc3ccccn3)cc2)cc1	-29.8	nt	0.699	-10.7%	nt	-0.6	nt	nt	nt

An excerpt of these results, as labelled records.
> C=C(C)/C=N/NC(=S)Nc1ccc(S(=O)(=O)N2CCOCC2)cc1
  ALR H2O2 inh: -4.1; AF4-AF9 inh: 9.5; E coli growth: nt; Vif A3G: 2.1%; FGF22 binding: i; HNF4A DNA FP: 0.5; rRNA inh HTS: 6.7; rRNA inh HTS OD600: -0.3; rRNA inh HTS RFP: -0.3

> COc1ccccc1S(=O)(=O)Cc1ccc(C(=O)NCC2CCCO2)o1 (configuration not stated)
  ALR H2O2 inh: -0.4; AF4-AF9 inh: -2.0; E coli growth: 0.686; Vif A3G: -3.3%; FGF22 binding: i; HNF4A DNA FP: 4.8; rRNA inh HTS: 5.2; rRNA inh HTS OD600: 4.6; rRNA inh HTS RFP: 1.4

Next compounds follow:
compound	ALR H2O2 inh	AF4-AF9 inh	E coli growth	Vif A3G	FGF22 binding	HNF4A DNA FP	rRNA inh HTS	rRNA inh HTS OD600	rRNA inh HTS RFP
O=C(CCCn1c(=S)[nH]c2cc3c(cc2c1=O)OCO3)NC1CC1	-0.9	nt	0.726	28.6%	nt	4.0	nt	nt	nt
COC(=O)c1cc(COC(=O)c2ccc(OC)c(S(=O)(=O)N3CCCC3)c2)oc1C	nt	nt	0.78	1.2%	nt	1.8	nt	nt	nt
O=C(CCc1nc2sc3c(c2c(=O)[nH]1)CCCC3)NCCc1ccc(Cl)cc1	nt	-2.3	nt	nt	i	13.0	-7.5	-13.8	1.6
CCN(CC)CCCN1C(=O)c2oc3ccccc3c(=O)c2C1c1cccnc1 (configuration not stated)	2.2	nt	0.631	2.0%	nt	-0.3	nt	nt	nt
O=C(NC(NC(=S)Nc1cccc(Cl)c1)C(Cl)(Cl)Cl)OCc1ccccc1 (configuration not stated)	nt	nt	0.708	1.5%	nt	1.3	nt	nt	nt
Cc1ccsc1CNC(=O)C1(C)CCN1C(C)C (configuration not stated)	nt	-2.4	nt	nt	i	0.2	14.4	15.7	2.6
Cc1cc(C)n(CC(=O)N2N=C(C(F)F)CC2(O)C(F)F)n1 (configuration not stated)	-29.3	nt	0.73	19.2%	nt	2.7	nt	nt	nt
CC(NCC(O)COc1ccc(Br)cc1)c1ccccc1 (configuration not stated)	-3.6	-13.1	0.661	nt	i	1.3	-7.4	-4.4	2.3
CCc1nc(C)ccc1OCC(=O)N1CCc2c([nH]c3ccccc23)C1c1ccccn1 (configuration not stated)	-4.5	8.1	0.624	-9.0%	i	2.4	-23.7	-27.6	11.8
COCCn1c(=NC(=O)CCS(=O)(=O)c2ccccc2)sc2cc(C)ccc21	-5.5	-0.2	0.736	-15.4%	i	-0.3	4.0	14.3	3.3
